Source: PubChem (National Center for Advancing Translational Sciences (NCATS))
VACV mCherry inh: inhibitors of vaccinia virus infection (mCherry reporter signal) | Vaccinia virus mCherry reporter infection, fluorescence; about a quarter of the inactives have no number | Potency, µM (top dose mostly 36.5 µM), without a hit: at the top dose activity change, negative = inhibition, hits mostly inhibitors | hit rate 0.63% among 310,000 | AID 720579; active = well fitted inhibition curve with a large enough effect; inconclusive = small, poorly fitted or top-dose-only effect; inactive = no such curve, though single readings can be large or run the other way; tested in A549 cells; further: nearly all actives have a fitted effect of over 35% in size; inactives centre near -10
Vaccinia Venus: inhibitors of vaccinia virus (Venus reporter). hit rate 0.46% among 330,000. Vaccinia virus Venus reporter expression, fluorescence. Potency, µM (series often up to 36.5 µM), for inactives: at the top dose activity change, negative = inhibition, usual class: inhibitors. AID 720580; active means well fitted inhibition curve with a large enough effect; inconclusive means small, poorly fitted or top-dose-only effect; inactive means no such curve, though single readings can be large or run the other way; tested in A549 cells; further: nearly all actives have a fitted effect of over 30% in size; inactives centre near -10
An asterisk follows results filed as active; i = inactive; ? = inconclusive; . = not tested or not shown; [ ] = another dose, or the depositor's remark. On the % scale 0 is the no-effect control and ±100 the full control effect; potency means the concentration at half of the fitted maximal effect.

Values run as follows: VACV mCherry inh, Vaccinia Venus
1: Cc1ccc(NS(=O)(=O)c2ccc(C(=O)NC3CCN(Cc4ccccc4)CC3)cc2)cc1
→ ?, ?
2: O=C1C(Nc2ccccc2)=C2CCCC=C2N1c1ccccc1
→ -20%, -18%
3: CCN(CC)CCCNC(=O)Cn1ccc2ccccc2c1=O
→ -5%, -4%
4: CCOc1ccc(CC(=O)NNC(=S)Nc2ccc(OC)c(OC)c2)cc1
→ -8%, -13%
5: CCCNS(=O)(=O)c1ccc(OCC(=O)N2CCN(Cc3ccc4c(c3)OCO4)CC2)c(C)c1
→ i, -25%
6: C1=CC2C3C=CC(C3)C2C1 (stereo not given)
→ i, -10%
7: Cc1csc(N2CCCC2c2nc3cc(C(F)(F)F)ccc3n2CCOCCO)n1 (stereo not given)
→ i, -19%
8: O=C1CCC(C(=O)OCc2cc(=O)oc3ccc4ccccc4c23)=NN1
→ -9%, -7%
9: CCOc1ccc(OCCC(=O)N(CCC2=CCCCC2)c2c(N)n(Cc3ccccc3)c(=O)[nH]c2=O)cc1
→ i, -10%
10: CCOC(=O)c1sc2nc3n(c(=O)c2c1C)CCC(C)CC3 (stereo not given)
→ i, 0%
11: O=[N+]([O-])c1ccc(O)c([N+](=O)[O-])c1
→ -3%, ?
12: COc1ccc(-n2nc(C(=O)NCC(=O)Nc3cc(OC)c(OC)c(OC)c3)c3ccccc3c2=O)cc1Cl
→ -8%, 5%
13: CC(C)(C)c1ccc(S(=O)(=O)NC(=O)C2(C)CCN2C(=O)C2(c3ccccc3)CC2)cc1 (stereo not given)
→ 2%, -2%
14: COc1ccc(C(=O)c2[nH]c(N)c(C(=O)NCCc3c[nH]c4ccccc34)c2-c2ccc(Cl)c(F)c2)cc1
→ 2%, -4%
15: COc1cccc(NC(=O)Cn2nnc(-c3nc(-c4ccccc4)no3)c2N)c1
→ -12%[7.34 µM], -6%[7.34 µM]
16: NC1=NS(=O)(=O)NC1c1cccc(F)c1 (stereo not given)
→ -6%, -18%
17: CN(c1ccc(C(=O)NCCC2=CCCCC2)cc1)S(C)(=O)=O
→ -20%, -15%
18: Cc1cc(=O)n2nc(N3CCCC(C(=O)NCc4ccco4)C3)sc2n1 (stereo not given)
→ ., -5%
19: Nc1nc2n(n1)C(c1ccccc1Cl)CC(c1ccc(F)cc1)N2 (stereo not given)
→ -7%, -11%
20: CCc1ccc(/C=C2/C(=O)NC(=O)N2C(C)=O)cc1
→ -26%, -23%
21: O=C(NCc1ccc2c(c1)OCO2)c1nn2cccnc2c1Cl
→ ., -5%
22: Cc1ccccc1NC(=O)C(C)Sc1nnc(CN2CCCC2)n1Cc1ccccc1 (stereo not given)
→ i, -9%
23: CN1OC[C@@H]2CN(C(=O)CCc3ccccc3)[C@H](c3ccccc3Br)C[C@@H]21
→ 15%, -3%
24: COc1ccc(/C=N/OCC(=O)N2CC3(C)CC2CC(C)(C)C3)cc1 (stereo not given)
→ 0%, -23%
25: O=C(NCc1ccccc1F)C(=O)NCC1CCCN1S(=O)(=O)c1ccccc1 (stereo not given)
→ -29%, -2%
26: CCOC(=O)C1=C[C@@H](c2ccccc2)N(S(=O)(=O)c2ccc(C)cc2)[C@H]1c1cccc(Cl)c1
→ i, -7%
27: COc1ccc(NC2c3ccccc3C(=O)N2c2cccnc2)cc1Cl (stereo not given)
→ -22%, -25%
28: CCOC(=O)C1CCCN(C(=O)c2cccc(C(F)(F)F)c2)CC1 (stereo not given)
→ 15%, -4%
29: CC(=O)Nc1ccc(S(=O)(=O)NCC2CCC(C(=O)NCCC3=CCCCC3)CC2)cc1 (stereo not given)
→ ?, 1%
30: N#Cc1nc(-c2ccc([N+](=O)[O-])cc2)oc1N1CCCCC1
→ -4%, -11%
31: CSc1cccc(NC(=O)CC(C)n2ccnc2)c1 (stereo not given)
→ i, -12%
32: Cn1c(=O)c2c(nc(Oc3ccccc3Br)n2C)n(C)c1=O
→ i, -15%
33: CCCc1cc(C(=O)Cc2ccc(F)cc2)c(O)cc1O
→ ?, ?
34: COc1ccc(-n2nc(C(=O)NCC(=O)N3CCN(c4ccccc4OC)CC3)c3ccccc3c2=O)c(OC)c1
→ -18%, -19%
35: CS(=O)(=O)N(Cc1ccccc1)c1ccc(C(=O)Nc2ccc3c(c2)OCO3)cc1
→ i, -15%
36: COc1ccccc1NS(=O)(=O)c1cc(NC(=O)c2cc(F)c(F)c(F)c2F)ccc1N1CCOCC1
→ 0%, -13%
37: COc1ccccc1NC(=O)Cn1c(=O)n(CC(=O)NCc2ccccc2Cl)c(=O)c2sccc21
→ -19%, 1%
38: CCN1C[C@@H]2[C@@H]3C(=O)N(Cc4ccccc4)C(=O)[C@@H]3[C@](CC)(C(=O)OC)N2C1=NC
→ -13%, 3%
39: CCN(C(=O)Cn1c(=O)nc(-c2ccccc2)c2cc(Cl)ccc21)c1cccc(C)c1
→ -14%, -8%
40: COc1ccc(C2=C(CC(=O)O)C(=O)CC2)cc1
→ i, -11%
41: CC1CN(C(=O)CSc2cn(CC(=O)N3CCOCC3)c3ccccc23)CC(C)O1 (stereo not given)
→ i, -6%
42: Cc1ccc(CNC(=O)c2cc(-c3ccccc3)nn2Cc2cc(C)no2)cc1
→ i, -18%
43: O=C1N(c2ccccc2)C(c2ccccc2)C12CCCCC2 (stereo not given)
→ i, -4%
44: CCc1ccc(CNC(=O)c2cnc3sc4cc(OC)ccc4n3c2=O)cc1
→ -6%, -10%
45: CCCn1c(CN2CCCCC2CC)nc2c1c(=O)n(C)c(=O)n2C (stereo not given)
→ 42%[activator], 7%
46: COc1cccc(-n2cc(CN(C)Cc3nc(Cc4ccccc4)no3)cn2)c1
→ i, -14%
47: CO/N=C(\Cn1ncc(NC2CCCCC2)c(Br)c1=O)c1ccc(Cl)cc1
→ ., -15%
48: CC(C(=O)NC(=O)NC1CCCCC1)N1CCN(C(c2ccccc2)c2ccccc2)CC1 (stereo not given)
→ -14%, -12%
49: CC1CN(C(=O)c2ccc(C(=O)c3ccccc3)cc2)CC(C)O1 (stereo not given)
→ i, -14%
50: CCOC(=O)c1sc2nc(CC(=O)OC)nc(N3CCN(c4ccc(OC)cc4)CC3)c2c1C
→ -8%, 2%
51: CCOC(=O)c1c(C)c(C(=O)Nc2ccc(F)cc2)c(C)n1C
→ i, -24%
52: CCOC(=O)c1ccc(-c2csc(NC(=O)CN3CCC(C)CC3)n2)cc1
→ ?, ?
53: CC(=O)c1ccc2c(c1)C1C=CCC1C(c1ccc(S(=O)(=O)N3CCOCC3)cc1)N2 (stereo not given)
→ -15%, 5%
54: COc1ccc(NC(=O)C(Cc2c[nH]c3ccccc23)NC(=O)OC(C)(C)C)cc1 (stereo not given)
→ -11%, 0%
55: CC1(C(=O)NS(=O)(=O)c2ccc(Cl)s2)CCN1C(=O)c1ccc(C2CCCCC2)cc1 (stereo not given)
→ i, 5%
56: CCN(CCCNC(=O)c1c(C)cc(=O)oc1C)c1ccccc1
→ -19%, -6%
57: O=C(OCC(=O)N1CCN(C(=O)c2ccco2)CC1)c1cc(-c2ccc(Cl)c(Cl)c2Cl)nc2ccccc12
→ -4%, -7%
58: O=C(NCCN1CCCC1)c1ccc(Br)cc1
→ i, -19%
59: COCCN1Cc2cccc(C(=O)Nc3ccc(C)c(C)c3)c2C1=O
→ -17%, -12%
60: CCc1cccc(C)c1NC(=O)C1CCN(S(=O)(=O)c2cc(Br)cc3c2N(C(C)=O)CC3)CC1
→ -7%, -2%

6 of the compounds above, with one line to a screen.
37: COc1ccccc1NC(=O)Cn1c(=O)n(CC(=O)NCc2ccccc2Cl)c(=O)c2sccc21
38: CCN1C[C@@H]2[C@@H]3C(=O)N(Cc4ccccc4)C(=O)[C@@H]3[C@](CC)(C(=O)OC)N2C1=NC
39: CCN(C(=O)Cn1c(=O)nc(-c2ccccc2)c2cc(Cl)ccc21)c1cccc(C)c1
40: COc1ccc(C2=C(CC(=O)O)C(=O)CC2)cc1
41: CC1CN(C(=O)CSc2cn(CC(=O)N3CCOCC3)c3ccccc23)CC(C)O1 (stereo not given)
42: Cc1ccc(CNC(=O)c2cc(-c3ccccc3)nn2Cc2cc(C)no2)cc1

| assay / entry | 37 | 38 | 39 | 40 | 41 | 42 |
| --- | --- | --- | --- | --- | --- | --- |
| VACV mCherry inh | -19% | -13% | -14% | i | i | i |
| Vaccinia Venus | 1% | 3% | -8% | -11% | -6% | -18% |

Next compounds follow:
Values run as follows: VACV mCherry inh, Vaccinia Venus
61: COc1ccc(NC(=O)CN2CCN(CC(=O)Nc3cc(OC)cc(OC)c3)CC2)cc1
→ ., 11%
62: CC(=O)N1CCN(C2=NC(=O)/C(=C\c3cccs3)S2)CC1
→ -3%, -3%
63: CCOc1ccc(-c2oc3ccc(C)cc3c(=O)c2O)cc1
→ -16%, -15%
64: CCOC(=O)C1=C(CSc2nc(-c3ccccc3)ccc2C#N)OC(N)=C(C#N)C1c1cccnc1 (stereo not given)
→ ., 10%
65: CCOC(=O)c1ccc(NC(=O)c2nc[nH]c2C(=O)N[C@@H](CC(C)C)C(=O)OC(C)(C)C)cc1
→ -11%, -28%
66: COc1ccc(N(C(=O)c2snc(C(N)=O)c2N)C(C(=O)NC2CCCC2)c2ccc(OC)c(OC)c2)cc1 (stereo not given)
→ -8%, 2%
67: COc1ccc(C=Nc2ccc3[nH]ncc3c2)c(O)c1
→ -6%, -7%
68: CCN(CC)S(=O)(=O)c1ccc(C(=O)NCc2ccc3[nH]c4c(c3c2)CCCC4)cc1
→ -26%, -4%
69: C=CCOC(=O)C1=C[C@H](c2csc3ccccc23)[C@@H](CCCO)[C@H](OCC)O1
→ -19%, -3%
70: COCCNC(=O)CN(c1cc(Cl)ccc1OC)S(C)(=O)=O
→ i, -4%
71: CCn1cc(/C=N/N=C2\CCC3C4CCc5cc(O)ccc5C4CC[C@]23C)c(C)n1 (stereo not given in full)
→ ., -24%
72: Cc1ccccc1C(=O)N1CC(=O)Nc2ccc(F)cc2C1c1ccc(F)cc1 (stereo not given)
→ -21%, -20%
73: Cc1ccc(OCc2nnc(SCC(=O)c3ccccc3)n2Cc2ccco2)cc1
→ ., ?
74: O=[N+]([O-])c1cccc(/C=N/NS(=O)(=O)c2ccccc2)c1
→ i, -26%
75: Cc1cc(C(=O)CSc2nc3ccccc3[nH]2)c(C)n1Cc1ccco1
→ -5%, -20%
76: COc1ccccc1CNC(=O)CN1C(=O)COc2ccc(S(=O)(=O)NC3CCCC3)cc21
→ -5%, -11%
77: CCC(CC)C(=O)Nc1ccc(Nc2ccccc2)cc1
→ i, -5%
78: CC(C)(C)c1ccc(-c2nnc(SCC(=O)c3ccc4c(c3)OCCO4)o2)cc1
→ -12%[1.46 µM], ?
79: Oc1[nH]c2ccc(Br)cc2c1N=Nc1ccc(F)cc1
→ -17%, -11%
80: CO[C@@]1(NC(=O)CSCC#N)C(=O)N2C(C(=O)O)=C(CSc3nnnn3C)CS[C@@H]21
→ -19%, -14%
81: Cc1nc(-c2ccc(C(=O)N3CCCC3)cc2)cs1
→ i, -15%
82: COc1ccc(C(CC(=O)O)NC(=O)c2ccccc2)cc1OC (stereo not given)
→ ?, 0%
83: COc1cc2c(=O)[nH]c3cc([N+](=O)[O-])ccc3c2cc1[N+](=O)[O-]
→ ?, -17%
84: COc1ccc(C2c3ccc(O)cc3Oc3ncn4nc(-c5ccco5)nc4c32)cc1OC (stereo not given)
→ 19%, -7%
85: COc1ccc(CCNC(=O)COc2ccc(S(=O)(=O)NC3CCCCC3)cc2Cl)cc1OC
→ -17%, -19%
86: O=C(NCCN1CCOCC1)Nc1ccc(F)cc1
→ i, 0%
87: CCCCCC(=O)Nc1cccc(C2=NOC3(C2)C[C@H](C(N)=O)N(C(=O)CCCCC)C3)c1 (stereo not given in full)
→ i, -8%
88: COc1ccc(CCNC(=O)c2cc(=O)[nH]c3ccccc23)cc1
→ -2%, 4%
89: Cc1cc2nc3c(=O)n(Cc4ccccc4)c(=O)[nH]c3nc2cc1N
→ -20%, 17%
90: Cc1c(C(=O)N(Cc2ccc(N(C)C)cc2)CC2CCCO2)oc2ccc(Cl)cc12 (stereo not given)
→ -13%, -6%
91: Cc1cccc(N2C(=O)NC(=O)/C(=C\c3ccc4c(c3)CCCN4Cc3ccccc3)C2=O)c1
→ -13%, 1%
92: COC(=O)c1ccc(/C=N\NC(=O)c2ccc(C)cc2Cl)cc1
→ -19%, -14%
93: CCOC(=O)C(NS(=O)(=O)c1ccc(C)cc1)(C(F)(F)F)P(=O)(OCC(C)C)OCC(C)C (stereo not given)
→ ?, ?
94: CCc1nn(-c2ccccc2)c2c1-c1cc(OC)c(OC)cc1C1(N2)C(=O)Nc2ccccc21 (stereo not given)
→ i, -16%
95: Cn1c(CNC(=O)c2ccc(Cl)cc2)nnc1SCC(=O)N1CCOCC1
→ i, -15%
96: CC(C)Oc1ccc(CNC(=O)c2ccc3c(c2)nc2n3CCCCC2)cc1
→ -9%, -11%
97: COC(=O)CN=Cc1c(C)[nH]n(-c2ccccc2)c1=O
→ -7%, -9%
98: C=C1C2[C@H](OC(C)=O)[C@@H]3CC(=O)[C@]4(C)OC[C@@]3(C)[C@@]4(O)[C@@H](OC(C)=O)[C@H](OC(C)=O)[C@@]2(COC(=O)c2ccccc2)[C@@H](OC(C)=O)C[C@@H]1O (stereo not given in full)
→ -5%, -4%
99: COc1ccc(NC(=O)CCn2c(=O)c3cccn3c3cccnc32)c(OC)c1
→ -12%, 3%
100: COc1cccc(C(=O)N2CCCC(CCC(=O)NCc3ccc(F)c(F)c3)C2)c1 (stereo not given)
→ -7%, -17%

A different layout for 2 compounds above:
entry | structure | VACV mCherry inh | Vaccinia Venus
2 | O=C1C(Nc2ccccc2)=C2CCCC=C2N1c1ccccc1 | -20% | -18%
35 | CS(=O)(=O)N(Cc1ccccc1)c1ccc(C(=O)Nc2ccc3c(c2)OCO3)cc1 | i | -15%

The order is random. Share with any hit: about 0.82%.
